Screening results deposited in PubChem by National Center for Advancing Translational Sciences (NCATS).
N370S GC: inhibits or activates N370S mutant glucocerebrosidase; P04062; hit rate 0.092% among 330,000; Potency, µM (titrated, usually from 59.4 µM), inactives show at the top dose activity change, negative = inhibition, hits mostly inhibitors; N370S GC spleen homogenate, 4MU-glucoside fluorescence; active = well fitted inhibition curve with a large enough effect;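 also: 0% = full enzyme activity and -100% = no enzyme basal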
An asterisk follows results filed as active. Potency is read from the fitted curve at half-maximal effect. Some of the compounds tested; most or all hits stand in other tables.

O=C(Nc1ccc(CN2CCOCC2)cc1)c1ccc(Cl)cc1
  N370S GC = -3%

O=C(C1=C(O)C(=O)N(Cc2ccco2)C1c1cccs1)c1cccs1 (stereo not given)
  N370S GC = -2%

COCC(=O)Nc1nnc(SCC(=O)N2CCCCC2)s1
  N370S GC = -2%

O=C(CNC(=O)Cc1ccccc1)NCC(=O)N1CCCCC1
  N370S GC = -28%

O=S(=O)(c1cccs1)N1CCN(C/C=C/c2ccccc2)CC1
  N370S GC = -3%

CCOC(=O)c1c(NC(=O)C2CC2)sc2c1CC(C)(C)OC2
  N370S GC = -7%

Cc1nc(SC(C(=O)c2ccccc2)c2ccccc2)n[nH]1 (stereo not given)
  N370S GC = 5%

O=C(CSc1n[nH]c(-c2cccs2)n1)N1CCCc2ccccc21
  N370S GC = 1%

CCN(CC(=O)Nc1cc(Cl)ccc1C)c1ncnc2sc(C)c(C)c12
  N370S GC = 10%

Cn1cc(C2CC(c3ccccc3)=NN2C(=O)c2ccccc2)c2ccccc21 (stereo not given)
  N370S GC = 7%

Cc1ccc(NC(=O)CSc2nc3[nH]ncc3c(=O)[nH]2)c(C)c1
  N370S GC = -4%

Cc1cc(C)n2c(-c3ccccc3Cl)nnc2n1
  N370S GC = 5%

COc1ccc(OC)c(NC(=O)CCN2CCN(Cc3ccccc3)CC2)c1
  N370S GC = 0%

O=C(O)C(CCCCN1C(=O)c2ccccc2C1=O)N1C(=O)c2ccccc2C1=O (stereo not given)
  N370S GC = 15%

O=C(C1CCC1)N1CCc2cc(S(=O)(=O)NC3CCCc4ccccc43)ccc21 (stereo not given)
  N370S GC = -11%

CCOC(=O)c1cc(CO)cc(C(=O)OCC)c1
  N370S GC = 0%

COc1cccc2c1OC[C@@H](CO)[C@H]2N(C)C(=O)Nc1ccc(Cl)cc1
  N370S GC = -7%

CCC(Sc1nnc(C)s1)C(=O)Nc1nccs1 (stereo not given)
  N370S GC = 18%

CCOC(=O)CNC(=O)/C=C/c1c(Cl)cccc1Cl
  N370S GC = 4%

O=C(c1ccco1)N1CCN(C(=O)C2CC(=O)N(c3ccccc3)C2)CC1 (stereo not given)
  N370S GC = -10%

CCOC(=O)C(C)(C)NS(=O)(=O)c1ccc(Cl)c([N+](=O)[O-])c1
  N370S GC = 1%

CC(=O)c1cccc(NC(=O)CCS(=O)(=O)c2cccc3nsnc23)c1
  N370S GC = -3%

O=C1CCC(C(=O)Nc2cccc(Br)c2)N1 (stereo not given)
  N370S GC = 2%

C=CCn1c(C)nc2ccccc2c1=O
  N370S GC = -3%

O=C(COc1coc(CN2CCCc3ccccc32)cc1=O)Nc1cccc([N+](=O)[O-])c1
  N370S GC = 0%

COC(=O)c1cnn(C(=O)c2cc(OC)ccc2Br)c1N
  N370S GC = -1%

Cc1cc(NC(=O)CSc2nnc(COc3ccccc3)n2Cc2ccco2)no1
  N370S GC = 0%

CCOC(=O)C1CCN(C(=O)Cn2cccc2C(=O)c2ccccc2)CC1
  N370S GC = 7%

COc1cc2c3cc1Oc1cc(ccc1O)CC1c4c(cc(OC)c(O)c4Oc4ccc(cc4)CC3N(C)CC2)CC[N+]1(C)C (stereo not given)
  N370S GC = 10%

Cc1c(NC(=O)NC(=O)c2ccc(F)cc2)c(=O)n(-c2ccccc2)n1C
  N370S GC = -5%

CCCNC(=O)C1CC(=O)N(c2ccc(OCC(=O)Nc3cc(C)cc(C)c3)cc2)C1 (stereo not given)
  N370S GC = 0%

CCN1CCN(C(=O)C2CCN(C(=O)c3cc4sccc4n3CC)CC2)CC1
  N370S GC = -2%

COC(=O)[C@H](C)NC(=O)Nc1ccccc1F
  N370S GC = 1%

CC(C)(C)C(=O)Nc1nc2cc3c(cc2s1)OCO3
  N370S GC = -4%

O=C(c1ccccc1)c1cc(-c2ccccc2)on1
  N370S GC = -20%

CC(C)c1ccccc1OCCNC(=O)c1cncc(Br)c1
  N370S GC = 11%

COC(=O)c1ccccc1NC(=O)COC(=O)CSc1nnc(N)s1
  N370S GC = -15%

Cc1cccc(C)c1NC(=O)C1(N2CCN(C(=O)c3ccco3)CC2)CCCCC1
  N370S GC = 21%

Cc1c(NC(=O)/C(C#N)=C/c2c(N3CCCCC3)nc3ccccn3c2=O)c(=O)n(-c2ccccc2)n1C
  N370S GC = 1%

CCOC(=O)C1CCN(C(=O)CCn2c(=O)[nH]c3ccccc3c2=O)CC1
  N370S GC = 6%

Cc1cccc(C(=O)Nc2ccnc(-c3cccnc3)n2)c1
  N370S GC = -7%

Cc1cc(C)c(NC(=O)OCCN2CCOCC2)c(C)c1
  N370S GC = -10%

Cc1ccc(C(=O)CSc2nnc(COc3ccc(C#N)cc3)n2-c2ccccc2)cc1
  N370S GC = -10%

O=C(N/N=C/c1cc(Br)cs1)c1ccc2c(c1)OCCO2
  N370S GC = 2%

CCn1nc(C)c(CN2CCCC(C(=O)c3cccc(OC(C)C)c3)C2)c1C (stereo not given)
  N370S GC = -3%

CN(C)C(=O)CN1CCN(Cc2cn(C)nc2-c2ccc3c(c2)OCCO3)CC1
  N370S GC = 0%

COc1ccccc1C(=O)N/C(=C\c1cn(S(=O)(=O)N(C)C)c2ccccc12)C(=O)N1CCCCC1
  N370S GC = -2%

O=C(Oc1coc(CSc2ncccn2)cc1=O)c1cccc([N+](=O)[O-])c1
  N370S GC = -6%

COc1cc(OC)cc(C(=O)NC(C)c2cnn(-c3ccccc3C)c2C)c1 (stereo not given)
  N370S GC = 12%

Cc1ccc(-n2nc3c(c2NC(=O)c2ccco2)CS(=O)(=O)C3)cc1
  N370S GC = -5%

O=S(=O)(c1ccc(Cl)cc1)N1CCN(Cc2c[nH]c3ccccc23)CC1
  N370S GC = -4%

O=C1CSc2ccc(S(=O)(=O)N3CCN(c4ccccc4)CC3)cc2N1
  N370S GC = 6%

CC(C)(C)c1nnc(NC(=O)C2CCN(C(=O)c3ccco3)CC2)s1
  N370S GC = -3%

OCCCc1nc2ccccc2n1CCOc1ccccc1
  N370S GC = 1%

COC(=O)c1ccc(NC(=S)N2CCN(Cc3ccccc3Cl)CC2)cc1
  N370S GC = -24%

O=C(CC1C(=O)NCCN1Cc1ccc(Cl)c(F)c1)NC1CCC1 (stereo not given)
  N370S GC = -9%

Cc1ccc(N/C(=N/S(=O)(=O)c2cccs2)c2ccccc2)c(C)c1
  N370S GC = 14%

O=C(NCc1cccs1)c1cc(-c2cccs2)on1
  N370S GC = 1%

CC(C)CC(NC=C1C(=O)OC(C)(C)OC1=O)C(=O)O (stereo not given)
  N370S GC = 4%

COc1ccc(S(=O)(=O)NCCC(=O)NCc2ccc(F)cc2)cc1
  N370S GC = 1%

Cc1ccn(CC(=O)N2CCCC(N3CCN(c4cccc(Cl)c4)CC3)C2)n1 (stereo not given)
  N370S GC = -2%

CCOc1ccc(NC(=O)CCCN2C(=O)C(c3ccccc3)Oc3cccnc32)cc1 (stereo not given)
  N370S GC = 7%

Cc1c(Cl)cccc1NC(=S)N(CCCN1CCOCC1)Cc1cccs1
  N370S GC = -11%

CSc1nnc(-c2cnccn2)n1CCCN1CCCC1=O
  N370S GC = -17%

COc1ccc(OCC(=O)NNC(=O)c2ccccn2)cc1
  N370S GC = 11%

O=c1c(-c2n[nH]c(=S)o2)cccn1Cc1ccccc1
  N370S GC = -3%

Cn1c(=O)[nH]c2ccc([N+](=O)[O-])nc21
  N370S GC = 7%

COc1cc(NC(=O)c2ccc3c(c2)OCO3)ccc1NC(=O)c1cccs1
  N370S GC = 20%

COc1ccc(C(=O)C[n+]2ccc(C)cc2)cc1
  N370S GC = 2%

O=C(N/N=C\c1cc([N+](=O)[O-])ccc1N1CCOCC1)c1ccccn1
  N370S GC = -2%

Cn1c(=O)c2c(ncn2CC(=O)OCC(=O)NCc2ccc(Cl)cc2)n(C)c1=O
  N370S GC = 24%

COc1ccc(CCNc2ncnc3c2oc2ccccc23)cc1OC
  N370S GC = -8%

COc1cccc(N2CCN(c3ccc4nnc(CCC(=O)Nc5ccccn5)n4n3)CC2)c1
  N370S GC = -2%

COc1ccc(S(=O)(=O)NCc2cccnc2)cc1NC(=O)c1ccc(Cl)cc1
  N370S GC = -7%

Cc1nc(N)sc1-c1csc(Nc2ccc(S(N)(=O)=O)cc2)n1
  N370S GC = -7%

O=C(CCNS(=O)(=O)c1ccc(OC(F)(F)F)cc1)N1CCCC1
  N370S GC = -2%

Cc1cc2cc(CNS(=O)(=O)c3ccccc3)ccc2n1C
  N370S GC = -1%

COc1ccc(S(=O)(=O)N(C)CC(=O)N2CCCCCC2)cc1OC
  N370S GC = 1%

COCCNc1nc(C)c(C(C)=O)s1
  N370S GC = -3%

COc1ccc(C2OCC3(CO2)SC(=O)NC3=O)cc1 (stereo not given)
  N370S GC = 1%

CS(=O)(=O)N(CC(=O)N1CCN(Cc2ccccc2)CC1)Cc1ccccc1
  N370S GC = 3%

O=C(Nc1cc(C(F)(F)F)ccc1N1CCOCC1)c1ccc(Cl)nc1
  N370S GC = 14%

CCOC(=O)N1CCC(NC(=O)CN2C(=O)COc3ccc(C(C)(C)C)cc32)CC1
  N370S GC = -1%

CC(=O)Nc1ccc(NC(=O)COC(=O)c2c3c(nc4ccccc24)CCN(Cc2ccccc2)C3)cc1
  N370S GC = -4%

CN1CCN(S(=O)(=O)c2ccc3c(c2)OCCO3)CC1
  N370S GC = -1%

CCCN1CCC(NC(=O)CCc2nnc(Cc3cc(OC)ccc3OC)o2)CC1
  N370S GC = -7%

CC(=O)c1sc(NC(=O)C2=NN(c3ccccc3)C(=O)CC2)nc1C
  N370S GC = -9%

CCN(C(=O)COC(=O)CCc1ccccc1)c1ccccc1
  N370S GC = 2%

Cn1c(=O)n(C)c2cc([N+](=O)[O-])c(N3CCN(C(=O)c4cccc(F)c4)CC3)cc21
  N370S GC = -21%

Cn1c(SCC(=O)NC(C)(C)C)nnc1-c1cccc(NC(=O)c2ccccc2F)c1
  N370S GC = 16%

O=[N+]([O-])c1cc2c(cc1/C=N/NS(=O)(=O)c1ccc(Br)cc1)OCO2
  N370S GC = -6%

CSc1cccc(NC(=O)/C=C/c2ccccc2)c1
  N370S GC = -7%

CCOC(=O)c1cn(CC)c2ccc(S(=O)(=O)N3CCC(C)CC3)cc2c1=O
  N370S GC = -17%

O=C(Oc1c(Cl)cc(Cl)c2cccnc12)N1CCOCC1
  N370S GC = -2%

COc1cc(C(=O)N/C(=C\c2cn(C)c3ccccc23)C(=O)NCCCO)cc(OC)c1OC
  N370S GC = -12%

CC(C)CN(C(=O)c1cccs1)C1CCS(=O)(=O)C1 (stereo not given)
  N370S GC = -3%

O=C(Cc1cc(=O)[nH]c(=O)[nH]1)NCCN1CCOCC1
  N370S GC = -2%

COc1ccc(Cn2nnnc2CN2CCC(O)(c3ccccc3F)CC2)cc1
  N370S GC = 5%

CC1(C)C2CCC1(CS(=O)(=O)N1CCOCC1)C(=O)C2 (stereo not given)
  N370S GC = -4%

COc1ccc(CNC(=O)CN(Cc2ccc(OC)cc2)C(=O)c2csnn2)cc1
  N370S GC = -4%

CC(C)(C)C(=O)/C=C/c1ccc(Oc2ccccc2)cc1
  N370S GC = 5%

N=C1S/C(=C\c2ccco2)C(=O)N1c1nccs1
  N370S GC = 4%

COC(=O)c1cc(S(=O)(=O)N2CCC(C(N)=O)CC2)oc1C
  N370S GC = 6%

CC(=O)Nc1c(O)nc(SCC(=O)Nc2c(C)cccc2C)[nH]c1=O
  N370S GC = -1%

O=C(O)c1ccccc1C(=O)OCCCCOC(=O)c1ccccc1C(=O)O
  N370S GC = -4%

Cn1cccc1C(=O)C(=O)Nc1ccc(Cl)cc1
  N370S GC = 2%

O=c1cc(C(F)(F)F)[nH]c(=O)n1C1CCCCC1
  N370S GC = 15%

CCc1nnc(NC(=O)CSc2nc(C)cc(C)c2C#N)s1
  N370S GC = 0%

COc1ccc(C(=O)Nc2ccccc2C(=O)N/N=C/c2ccccc2OC)cc1
  N370S GC = 8%

NCCOc1ccccc1OCCN
  N370S GC = 12%

CCCCc1c(C)nc2ccccc2c1SCCC(=O)O
  N370S GC = 4%

CCOCCCNC(=O)c1ccc(OC2CCN(C(C)=O)CC2)c(OC)c1
  N370S GC = 0%

CC1=CC(C)(C)N2C(=O)C3(C(C#N)=C(N)Oc4cc(C)oc(=O)c43)c3cccc1c32 (stereo not given)
  N370S GC = -1%

CCCOc1c(Cl)cc(/C=N/O)cc1OCC
  N370S GC = 26%

CS(=O)(=O)N1CCC(NC(=O)Cc2ccccc2)CC1
  N370S GC = 1%

O=C(Nc1cccc2c1C(=O)NC2=O)c1cccc(N2C(=O)CCC2=O)c1
  N370S GC = -7%

O=C(CSc1nnc(CNC(=O)c2ccco2)o1)Nc1ccc(F)cc1
  N370S GC = -2%

Cn1c(=O)c2c(ncn2CC(=O)N(Cc2ccccc2)c2ccccn2)n(C)c1=O
  N370S GC = 0%

Cc1ccsc1C(=O)NCc1ccccc1Cl
  N370S GC = -8%

O=C(/C=C/NCc1cccnc1)c1ccc(-c2ccccc2)cc1
  N370S GC = 19%

O=C(O)C1CCN(C(=O)c2ccc3c(c2)OCO3)CC1
  N370S GC = -5%

CCN(C(=O)COc1cccnc1[N+](=O)[O-])C1CCS(=O)(=O)C1 (stereo not given)
  N370S GC = -23%

O=C1c2ccccc2C(Nc2ccc3c(c2)OCO3)N1Cc1ccco1 (stereo not given)
  N370S GC = 3%

Cc1cccnc1Nc1nc(-c2ccc(F)cc2)cs1
  N370S GC = -1%

CCOc1ccc(N(CC(=O)Nc2ccccc2C(=O)N2CCCC2)S(C)(=O)=O)cc1
  N370S GC = -16%

Cc1ccc(NC(=O)CS(=O)CC(=O)NCCCN(C)c2ccccc2)cc1 (stereo not given)
  N370S GC = -27%

Part of the list above, as tab-separated lines.
smiles	N370S GC
CCc1nnc(NC(=O)CSc2nc(C)cc(C)c2C#N)s1	0%
COc1ccc(C(=O)Nc2ccccc2C(=O)N/N=C/c2ccccc2OC)cc1	8%
NCCOc1ccccc1OCCN	12%
CCCCc1c(C)nc2ccccc2c1SCCC(=O)O	4%
CCOCCCNC(=O)c1ccc(OC2CCN(C(C)=O)CC2)c(OC)c1	0%
CC1=CC(C)(C)N2C(=O)C3(C(C#N)=C(N)Oc4cc(C)oc(=O)c43)c3cccc1c32 (stereo not given)	-1%
CCCOc1c(Cl)cc(/C=N/O)cc1OCC	26%
